# HIV Env fusion: blocks HIV Env-driven cell-cell fusion. HeLa-JRFL Env/CEM21 cell fusion, luciferase. inhibition, % at 12.3 µM. actives 1.1% (n = 360,000). AID 651610;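 active = mean replicate inhibition score of at least 50 and every replicate individually at or above 50; inconclusive = only one of the two criteria met; inactive = mean below 50 and not all replicates reaching 50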;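 also: 0% = plate neutral controls and 100% = maraviroc near 300 nM; one replicate is shown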
# Active calls of the source: *; u = inconclusive; [ ] = another dose, or the depositor's remark.
SMILES,HIV Env fusion
CC(C)CC#Cc1ccc2c(c1)O[C@@H](CN(C)S(=O)(=O)c1ccc(F)cc1)[C@@H](C)CN([C@@H](C)CO)S2(=O)=O,44[16.7 µM]
c1ccc(COCCc2cn(Cc3ccccc3)c3ccccc23)cc1,2
C[C@@H]1C=CCCO[C@]12C(=O)N(Cc1ccccc1C(F)(F)F)c1cccc(Br)c12,26
COC(=O)c1ccc(CN2C(=O)[C@]3(OCCC=C[C@H]3C)c3ccccc32)cc1,9
CO[C@@H]1CN(C)C(=O)c2ccc(NC(=O)NC(C)C)cc2OC[C@H](C)N(Cc2ccccn2)C[C@@H]1C,-7[16.7 µM]
CN(C)CC(=O)N1[C@@H]2c3ccc(-c4ccccc4)c(=O)n3C[C@H]1[C@H](CO)[C@H]2C(=O)N1CCN(C)CC1,2[16.7 µM]
C[C@@H]1CCCCO[C@H](CN(C)CC2CC2)[C@H](C)CN([C@H](C)CO)C(=O)c2cc(N(C)C)ccc2O1,-9[16.7 µM]
CO[C@@H]1CN(C)C(=O)c2ccc(NC(=O)C3CCCC3)cc2OC[C@H](C)N(C(=O)CC2CC2)C[C@@H]1C,4[16.7 µM]
CN1C(=O)c2cc(NC(=O)Cc3cccs3)ccc2OC[C@H]2O[C@H](CC(=O)N[C@H]3CCN(Cc4ccccc4)C3)CC[C@@H]21,3[16.7 µM]
COc1ccc(-c2ccc3n(c2=O)C[C@H]2N[C@@H]3[C@@H](C(=O)N3CCCCC3)[C@@H]2CO)cc1,2[16.7 µM]
CO[C@@H]1CC[C@@H]2CCOc3c(C#N)cccc3C(=O)N(C)C[C@H](C)C(=O)N(C)C[C@@H]1O2,-32[16.7 µM]
C[C@@H]1CN([C@H](C)CO)C(=O)c2ccccc2-c2ccccc2CO[C@@H]1CN(C)C(=O)Nc1ccc2c(c1)OCO2,7[16.7 µM]
CO[C@@H]1CN(C)C(=O)c2cc(NC(=O)Nc3cccc(F)c3)ccc2OC[C@@H](C)N(C(=O)Nc2c(C)noc2C)C[C@H]1C,-3[16.7 µM]
C[C@@H]1CN([C@@H](C)CO)S(=O)(=O)c2ccc(C3=CCCCC3)cc2O[C@@H]1CN(C)C,2[16.7 µM]
C[C@@H]1CN([C@@H](C)CO)C(=O)c2cccc(NC(=O)c3cnccn3)c2O[C@@H]1CN(C)S(=O)(=O)c1ccccc1,2[16.7 µM]
Cc1noc(C)c1S(=O)(=O)Nc1ccc2c(c1)C(=O)N([C@H](C)CO)C[C@@H](C)[C@@H](CN(C)Cc1ccc(C(F)(F)F)cc1)OCCCC[C@H](C)O2,25[16.7 µM]
C/C=C/c1ccc([C@H]2[C@@H](CO)N(C(=O)C3CC3)C23CN(S(=O)(=O)CC)C3)cc1,29[16.7 µM]
C[C@H]1CN([C@@H](C)CO)C(=O)Cc2cc(NS(=O)(=O)c3ccc(Cl)cc3)ccc2O[C@@H]1CN(C)CC1CCCCC1,-10[16.7 µM]
CC=Cc1ccc2n(c1=O)C[C@@H]1[C@@H](CO)[C@H](C(=O)NC3CCC3)N[C@H]21 (mixture of isomers),1[16.7 µM]
CCCCCCc1nc(-c2ccc(OC)nc2)c(C)c2c1[Si](C(C)C)(C(C)C)OC2,-23[16.7 µM]
COc1ccccc1CNC(=O)C[C@@H]1CC[C@@H]2[C@H](COC[C@@H](O)CN2Cc2cccc(-c3ccncc3)c2)O1,5[16.7 µM]
O=C(NCc1ccccc1)[C@H]1CCCN1C(=O)[C@H]1CCCN1C(=O)c1cccc2ccccc12,1
COCC(=O)Nc1ccc2c(c1)C(=O)N(C)C[C@@H](OC)[C@@H](C)CN(C(=O)c1ccccc1)[C@H](C)CO2,10[16.7 µM]
CCCNC(=O)C[C@H]1C[C@H]2c3cc(NC(=O)Nc4ccccc4F)ccc3O[C@H]2[C@@H](CO)O1,27[16.7 µM]
O=C(C[C@H]1C=C[C@H](NS(=O)(=O)c2ccc(F)cc2)[C@H](CO)O1)NC1CCCCC1,-8[16.7 µM]
C[C@@H]1CN([C@@H](C)CO)C(=O)c2cccc(NS(C)(=O)=O)c2O[C@H]1CN(C)C(=O)Nc1cccc2ccccc12,-4[16.7 µM]
COC(=O)c1cc2c(c3c4cc(C)ccc4n(S(=O)(=O)c4cccc(C)c4)c13)C(=O)N(Cc1ccc(C(F)(F)F)cc1)C2,16
CO[C@@H]1CN(C)C(=O)c2ccc(NC(=O)c3ccc(F)cc3)cc2OC[C@H](C)N(C)C[C@H]1C,10[16.7 µM]
CC=Cc1ccc2n(c1=O)C[C@@H]1[C@@H](CO)[C@H](C(=O)N[C@H](C)c3ccccc3)[C@H]2N1CC (mixture of isomers),12[16.7 µM]
Cc1noc(C)c1NC(=O)Nc1cccc2c1O[C@H](CN(C)S(=O)(=O)c1ccccc1)[C@H](C)CN([C@H](C)CO)C2=O,5[16.7 µM]
COc1cccc(C(=O)Nc2ccc3c(c2)C(=O)N(C)C[C@H](OC)[C@H](C)CN[C@@H](C)CO3)c1,10[16.7 µM]
COC(=O)[C@]12C[C@H](CC(=O)NCc3ccc(C)o3)C(=O)N(Cc3ccc4c(c3)OCO4)C1=C[C@H](C(C)(C)C)O[C@@H]2C,3
O=C(N[C@H]1CC[C@H](CCNS(=O)(=O)Cc2ccccc2)O[C@@H]1CO)c1cnccn1,23[16.7 µM]
CN(C)C(=O)c1cc2c(c(-c3cccc(C4=CCCCC4)c3)n1)[C@H](CCO)N(S(C)(=O)=O)C2,-27[16.7 µM]
CC(C)C[C@H]1COc2cc(Br)ccc2S(=O)(=O)N1Cc1cccc(Cl)c1,18
CN1C(=O)c2cc(NC(=O)Nc3ccccc3Cl)ccc2OC[C@@H]2O[C@H](CC(=O)NCCCN3CCOCC3)CC[C@H]21,-6[16.7 µM]
O=S(=O)(c1ccc(C(F)(F)F)cc1)N1CCCc2nc(-c3ccc(Br)cc3)ccc21,u
C[C@H](CO)N1C[C@H](C)[C@H](CN(C)C(=O)Nc2cccc3ccccc23)Oc2c(NS(C)(=O)=O)cccc2C1=O,7[16.7 µM]
C[C@H](NC(=O)C[C@H]1C[C@H]2c3cc(NC(=O)NC4CCCCC4)ccc3O[C@H]2[C@@H](CO)O1)c1ccccc1,-1[16.7 µM]
COCCNC(=O)C[C@H]1C[C@@H]2c3cc(NC(=O)CN(C)C)ccc3O[C@@H]2[C@H](CO)O1,20[16.7 µM]
CC(C)NC(=O)N(C)C[C@@H]1OCCCC[C@H](C)Oc2ccc(N(C)C)cc2C(=O)N([C@H](C)CO)C[C@@H]1C,32[16.7 µM]
COC(=O)C1=C(C)N(Cc2ccccc2C(F)(F)F)C(=NCc2cc(OC)c(OC)c(OC)c2)NC1c1ccccc1C(F)(F)F (stereo unspecified),-64
CCCN1[C@@H]2c3ccc(-c4ccccc4F)c(=O)n3C[C@@H]2[C@@H](CO)[C@@H]1C(=O)N1CCN(C)CC1,3[16.7 µM]
C/C=C/c1ccc2c(c1)O[C@@H](CN(C)CC1CCOCC1)[C@@H](C)CN([C@H](C)CO)S2(=O)=O,-23[16.7 µM]
O=C(CS(=O)(=O)c1ccccc1)CS(=O)(=O)c1ccccc1,3
CCN=C1NC(c2ccc(F)cc2)C(C(=O)OC)=C(C)N1Cc1cccc(C(F)(F)F)c1 (stereo unspecified),30
CNC[C@H]1OCCCC[C@@H](C)Oc2ccc(NS(=O)(=O)c3ccc(OC)cc3)cc2C(=O)N([C@@H](C)CO)C[C@H]1C,-1[16.7 µM]
C[C@H]1CN([C@@H](C)CO)C(=O)Cc2cc(NC(=O)CCCCCC(=O)Nc3ccccc3N)ccc2O[C@H]1CN(C)C(=O)Nc1ccc(F)cc1,10[16.7 µM]
C[C@@H]1CN([C@@H](C)CO)S(=O)(=O)c2ccc(C3=CCCC3)cc2O[C@H]1CN(C)S(C)(=O)=O,21[16.7 µM]
COC(=O)c1cc2c(c3c4ccccc4n(S(=O)(=O)c4ccccc4)c13)C(=O)N(C)C2,-1
CCCNC(=O)C[C@H]1C[C@@H]2c3cc(NC(=O)COC)ccc3O[C@@H]2[C@H](CO)O1,-2[16.7 µM]
COc1cccc(S(=O)(=O)N2C[C@@H](O)COC[C@@H]3O[C@@H](CC(=O)N4CCN(c5ccccc5)CC4)CC[C@H]32)c1,8[16.7 µM]
CO[C@@H]1CN(C)C(=O)c2cc(NS(C)(=O)=O)ccc2OC[C@@H](C)N(C(=O)NC(C)C)C[C@@H]1C,2[16.7 µM]
CC=Cc1ccc2n(c1=O)C[C@@H]1[C@@H](CO)[C@H](C(=O)NCC3CCCCC3)[C@H]2N1C(C)=O (mixture of isomers),-17[16.7 µM]
COc1ccc(CN(C)C[C@H]2Oc3ccc(NC(=O)Cn4cnnn4)cc3C(=O)N([C@@H](C)CO)C[C@H]2C)cc1,11[16.7 µM]
CCCCCN(C(=O)CCC(=O)OC(C)C(=O)Nc1ccccc1C)c1c(N)n(CCCC)c(=O)[nH]c1=O (stereo unspecified),1
C[C@@H]1CCCCO[C@H](CN(C)CC2CCCCC2)[C@H](C)CN([C@H](C)CO)C(=O)c2cc(NC(=O)c3ccncc3)ccc2O1,16[16.7 µM]
COc1ccccc1CNC(=O)C[C@@H]1C[C@H]2c3cc(NC(=O)c4ccc5c(c4)OCO5)ccc3O[C@H]2[C@H](CO)O1,-1[16.7 µM]
COCC1=C2[C@@H](CCc3ccccc3)OB(O)C[C@@H]2n2c(=O)n(-c3ccccc3)c(=O)n2C1,3[16.7 µM]
CCCC(=O)Nc1ccc2c(c1)C(=O)N(C)C[C@H](OC)[C@@H](C)CN(C(=O)C1CCCC1)[C@H](C)CO2,7[16.7 µM]

# Continuation:
SMILES,HIV Env fusion
C[C@H]1CN([C@@H](C)CO)C(=O)c2cccc(NC(=O)NC3CCCCC3)c2O[C@@H]1CN(C)Cc1ccc(C(=O)O)cc1,8[16.7 µM]
CCCN1[C@@H]2c3ccc(-c4ccc(C(=O)N(C)C)cc4)c(=O)n3C[C@@H]2[C@@H](CO)[C@@H]1C(=O)NCCOC,3[16.7 µM]
CO[C@H]1CN(C)C(=O)c2cc(NS(=O)(=O)c3ccccc3)ccc2OC[C@H](C)N(C)C[C@@H]1C,5[16.7 µM]
COc1ccc(CCn2cnn3c(=O)c4ccccc4nc3c2=O)cc1OC,8
Cc1noc(C)c1S(=O)(=O)Nc1ccc2c(c1)C(=O)N([C@@H](C)CO)C[C@@H](C)[C@H](CN(C)C(=O)Nc1ccc(F)cc1)O2,9[16.7 µM]
C[C@@H]1CN([C@H](C)CO)C(=O)c2cc(NS(=O)(=O)c3cccs3)ccc2O[C@H]1CN(C)S(=O)(=O)c1cccs1,-8[16.7 µM]
CO[C@H]1CN(C)C(=O)c2cc(NS(C)(=O)=O)ccc2OC[C@H](C)N(C)C[C@H]1C,-13[16.7 µM]
Cc1noc(C)c1C(=O)N(C)C[C@H]1OCc2ccccc2-c2c(n(C)c3ccccc23)C(=O)N([C@@H](C)CO)C[C@@H]1C,19[16.7 µM]
CO[C@H]1CN(C)C(=O)c2ccc(NS(=O)(=O)c3ccccc3C)cc2OC[C@@H](C)N(C)C[C@@H]1C,12[16.7 µM]
CN1C(=O)[C@@H]2[C@@H](C[C@]3(COc4ccccc4)OC[C@H]2/C3=C\c2ccccc2)C1=O,3[16.7 µM]
CCCCCCCCN1C(=O)[C@@H](CC(=O)NCc2ccc(OC)c(OC)c2)C[C@@]2(C(=O)OC)C1=C[C@H](C(C)(C)C)O[C@@H]2C,70*
O=C(N[C@H]1CC[C@@H](CCNS(=O)(=O)Cc2ccccc2)O[C@H]1CO)c1cnccn1,10[16.7 µM]

# Reformatted as tab-separated lines: entries from further up.
Structure	HIV Env fusion
CCCN1[C@@H]2c3ccc(-c4ccc(C(=O)N(C)C)cc4)c(=O)n3C[C@@H]2[C@@H](CO)[C@@H]1C(=O)NCCOC	3[16.7 µM]
CO[C@H]1CN(C)C(=O)c2cc(NS(=O)(=O)c3ccccc3)ccc2OC[C@H](C)N(C)C[C@@H]1C	5[16.7 µM]
COc1ccc(CCn2cnn3c(=O)c4ccccc4nc3c2=O)cc1OC	8
Cc1noc(C)c1S(=O)(=O)Nc1ccc2c(c1)C(=O)N([C@@H](C)CO)C[C@@H](C)[C@H](CN(C)C(=O)Nc1ccc(F)cc1)O2	9[16.7 µM]
C[C@@H]1CN([C@H](C)CO)C(=O)c2cc(NS(=O)(=O)c3cccs3)ccc2O[C@H]1CN(C)S(=O)(=O)c1cccs1	-8[16.7 µM]
CO[C@H]1CN(C)C(=O)c2cc(NS(C)(=O)=O)ccc2OC[C@H](C)N(C)C[C@H]1C	-13[16.7 µM]
Cc1noc(C)c1C(=O)N(C)C[C@H]1OCc2ccccc2-c2c(n(C)c3ccccc23)C(=O)N([C@@H](C)CO)C[C@@H]1C	19[16.7 µM]

# Copied from the list.
# `Cc1noc(C)c1S(=O)(=O)Nc1ccc2c(c1)C(=O)N([C@@H](C)CO)C[C@@H](C)[C@H](CN(C)C(=O)Nc1ccc(F)cc1)O2` @ HIV Env fusion = 9[16.7 µM]
# `CO[C@H]1CN(C)C(=O)c2cc(NS(=O)(=O)c3ccccc3)ccc2OC[C@H](C)N(C)C[C@@H]1C` @ HIV Env fusion = 5[16.7 µM]

# Later entries
SMILES,HIV Env fusion
CO[C@H]1CN(C)C(=O)c2cc(NC(=O)C3CC3)ccc2OC[C@H](C)N(CCc2ccccc2)C[C@H]1C,-3[16.7 µM]
CC(C)NC(=O)[C@@]1(C)c2ccccc2C(=O)N(Cc2cc(C(F)(F)F)cc(C(F)(F)F)c2)[C@H]1c1ccc(CO)cc1,-24[16.7 µM]
CCCNC(=O)N1C[C@H](O)COC[C@H]2O[C@@H](CC(=O)N3CCN(C)CC3)CC[C@@H]21,-2[16.7 µM]
COC(=O)C1=C(C)N(Cc2cccc(C(F)(F)F)c2)C(=NCC2CC2)NC1c1ccccc1C(F)(F)F (stereo unspecified),-181
CO[C@@H]1CN(C)C(=O)c2cc(NC(=O)NC3CCCCC3)ccc2OC[C@H](C)N(CCc2ccccc2)C[C@H]1C,27[16.7 µM]
C[C@@H]1CCCCO[C@@H](CN(C)C(=O)Nc2ccc3c(c2)OCO3)[C@@H](C)CN([C@@H](C)CO)C(=O)c2cc(NC(=O)c3ccccc3)ccc2O1,-7[16.7 µM]
O=C(C[C@H]1CC[C@@H]2[C@H](COC[C@@H](O)CN2Cc2nccs2)O1)NCc1ccc(F)cc1,5[16.7 µM]

# Not all compounds are listed, so the mix of outcomes need not match the whole.
